# Screening results from PubChem BioAssay.
# TRPML1 inh = inhibitors of human TRPML1 channel. AID 624415. hit rate 0.02% among 390,000. TRPML1-inducible cells, Ca2+ dye fluorescence, FDSS; hits give low values; inhibition of EC80 agonist-evoked calcium signal. Q9GZU1. activity change, negative = inhibition, % (test concentration not listed); in the data active means activity change below about -50%; inconclusive means about -30% to -50%; inactive means above about -30%;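 further: stimulus is agonist 54-4 at its EC80 concentration; on the % scale 0 is the no-effect control and ±100 the full control effect; compound concentration not given in the record; the text of the record puts the active cut at -80%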
#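 Tet-induced TRPML1-DL cells loaded with Ca8 no-wash calcium dye were read kinetically on FDSS. Compound addition was followed by EC80 agonist 54-4 (4 uM final); inhibition was read over 110 s.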
# PINK1 modulator = changes PINK1 expression | PINK1 immunofluorescence, high-content cytometry, 24 h | Potency, µM (titrated, usually from 76.6 µM), without a hit: at the top dose activation (PINK1 increase), actives largely listed as activators | hit rate 0.2% among 410,000; active = well fitted activation curve with a large enough effect; inconclusive = small, poorly fitted or top-dose-only effect; inactive = flat fitted curve, though single readings scatter; cell line not stated here;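 further: potency means the concentration at half of the fitted maximal effect; % of control where 0% means no effect; nearly all actives have a fitted effect of over 65% in size; a mitochondrial uncoupler was the plate control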
#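 Readout is PINK1 immunofluorescence, quantified alongside mitochondrial, cell and nuclear markers by laser-scanning microplate cytometry. Cells from a stable line were exposed to compound titrations (5 concentrations) for 24 hours, with CCCP controls.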
# Six1-Eya2 inh = Six1/Eya2 interaction inhibition; Q15475+O00167; AlphaScreen GST-Six1/His-Eya2 binding, biochemical; hits give low values; control for the full effect not named in the record; activity change, % (concentration not given with the values); hit rate 0.56% among 360,000; in the data active = activity change below about -65%; inconclusive = about -30% to -65%; inactive = above about -30%; further: on the % scale 0 is the no-effect control and ±100 the full control effect
# Target sequence (O00167 whole entry, looked up): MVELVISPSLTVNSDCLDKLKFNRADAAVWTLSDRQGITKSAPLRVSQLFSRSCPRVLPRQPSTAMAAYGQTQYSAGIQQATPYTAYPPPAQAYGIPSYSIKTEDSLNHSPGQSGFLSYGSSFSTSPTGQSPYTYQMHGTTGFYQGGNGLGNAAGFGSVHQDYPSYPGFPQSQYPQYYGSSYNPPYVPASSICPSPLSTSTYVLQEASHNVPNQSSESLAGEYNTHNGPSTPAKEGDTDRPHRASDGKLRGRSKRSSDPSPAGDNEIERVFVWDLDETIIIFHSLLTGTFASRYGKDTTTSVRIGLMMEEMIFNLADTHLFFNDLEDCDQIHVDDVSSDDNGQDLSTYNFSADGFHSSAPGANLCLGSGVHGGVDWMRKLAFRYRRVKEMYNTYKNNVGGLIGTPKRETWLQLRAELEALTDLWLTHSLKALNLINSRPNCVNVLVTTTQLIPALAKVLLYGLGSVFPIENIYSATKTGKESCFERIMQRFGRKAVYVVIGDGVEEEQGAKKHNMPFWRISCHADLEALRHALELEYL
# Target sequence (Q15475 whole entry, looked up): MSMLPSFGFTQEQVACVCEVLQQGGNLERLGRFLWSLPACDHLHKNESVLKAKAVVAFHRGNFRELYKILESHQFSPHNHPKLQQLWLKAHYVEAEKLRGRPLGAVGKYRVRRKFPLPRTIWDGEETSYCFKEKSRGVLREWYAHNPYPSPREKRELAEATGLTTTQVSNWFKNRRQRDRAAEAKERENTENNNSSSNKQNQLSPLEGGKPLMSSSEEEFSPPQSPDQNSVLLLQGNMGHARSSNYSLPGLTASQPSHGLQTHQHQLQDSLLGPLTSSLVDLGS
#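 Homogeneous AlphaScreen proximity assay pairing GST-Six1 with His-tagged Eya2 (added as 5X mix: 250 nM and 500 nM) in 50 mM Tris pH 8.0, 300 mM NaCl, 1 mM TCEP. Glutathione donor and nickel acceptor beads; 1 h, 37 °C, dark.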
# D2 PAM = potentiates the human D2 dopamine receptor allosterically; potentiation, % (no concentration beside the values); AID 624464; DiscoveRx D2 beta-arrestin cells, luminescence, 90 min; 100% = 57 uM dopamine signal; hit rate 0.23% among 360,000; P14416; active = potentiation of 50% or more; inconclusive = 30% to 50%; inactive = 30% or less;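 further: compound concentration not given in the record; tested on top of an EC20 dose of dopamine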
#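 PathHunter D2 cells, attached overnight at 37 deg C, received compound in DMSO plus dopamine at EC20 (50 nM final) for 90 min at 37 deg C. Beta-arrestin recruitment was read as luminescence after 1 h with detection reagent at ambient temperature.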
# D2 agonist = activates the human D2 dopamine receptor; P14416; DiscoveRx PathHunter D2 beta-arrestin, luminescence, 90 min; 100% = 57 uM dopamine signal; activation, % (test concentration not listed); hit rate 0.084% among 360,000; AID 624465; in the data active = activation above about 40%; inconclusive = about 15% to 40%; inactive = below about 15%; further: compound concentration not given in the record; the text of the record calls up to 30% inactive
#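 DiscoveRx PathHunter D2 beta-arrestin cells (2,100/well) attached overnight, then compound-stimulated 90 min at 37 C in HBSS/10 mM HEPES/0.1% Tween-20 buffer; beta-galactosidase complementation read by luminescence after 1 h at ambient temperature. Dopamine 57 uM final (EC100) as control.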
# TRPML1 agonist = human mucolipin-1 channel agonism | AID 624414 | Q9GZU1 | activation, % (test concentration not listed) | hit rate 0.12% among 410,000 | TRPML1-expressing cells, Ca2+ dye fluorescence, FDSS; host cell line not named in the record; reference of the full effect not given here; in the data active = activation above about 50%; inconclusive = about 30% to 50%; inactive = below about 30%; further: 0% is about no effect; the text of the record puts the active cut at 80%
#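 Calcium fluorescence on an FDSS kinetic reader gave the read-out. Tet-induced TRPML1-DL cells were plated overnight, dye-loaded (Ca8 with quencher, 45-90 min, room temperature, dark), then read 110 s after compound addition, and again 110 s after 4uM final 54-4 (EC80).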
# Starred values were filed as active, the others as inactive; u = inconclusive; x = not tested or not shown; [ ] = dose if it differs, or a comment. Compounds as they come. Share with any hit: about 1%.
SMILES,TRPML1 inh,PINK1 modulator,Six1-Eya2 inh,D2 PAM,D2 agonist,TRPML1 agonist
CCOC(=O)C1=CC[C@H]2c3c(c4ccccc4n3C)C[C@H]1N2C,-8,0.5%,-18,-4,-1.4,-0.2
CN(C)C(=O)c1cc2cc(Br)ccc2s1,0,-0.4%,2,-2,-3.3,0.0
COc1ccc(CNC(=O)C(C)NCc2ccc(S(N)(=O)=O)cc2)cc1 (stereo unspecified),-7,-0.8%,7,-1,-2.1,0.0
CCc1nc2c(OCc3ccccc3C)cccn2c1N(C)C(=O)CC(C)C,20,2.8%,-12,-16,-4.1,-0.1
COc1ccc(S(=O)(=O)N(CC(=O)NC(C)c2ccccc2)c2ccc(C)cc2)cc1OC (stereo unspecified),8,-0.2%,x,x,x,0.8
CC(C)CN(C(=O)CSc1nnc2ccccn12)C1CCS(=O)(=O)C1 (stereo unspecified),-1,2.2%,14,-2,0.9,-0.6
CCc1nnc(NC(=O)C2(C)COC(c3ccccc3)OC2)s1 (stereo unspecified),-1,-0.9%,4,-3,-2.1,0.0
CC(=O)NCCNC(=O)c1cc(-c2cccc3ccccc23)nc2ccccc12,-1,0.9%,-2,-5,-0.6,-0.4
O=C(CSc1nnc(-c2ccccc2O)o1)Oc1ccc(OCc2ccccc2)cc1,-4,-3.9%,0,-16,-1.8,3.3
CC(=O)Nc1ccc(C(=O)N/C(=C/c2ccccc2)C(=O)Nc2cccc(C(=O)O)c2)cc1,-2,0.6%,3,-4,-2.5,0.4
CCOc1cc(/C=N/NC(=O)C2CC2)ccc1OC(C)C,29,-0.2%,5,-8,-3.8,-0.6
CCn1c(=N)c(C(=O)NCc2cccnc2)cc2c(=O)n3cc(C)ccc3nc21,-2,-0.6%,x,x,x,-0.6
O=C(Nc1ccccc1)N1CCC(c2ccccc2)C1 (stereo unspecified),1,0.4%,14,-9,1.2,-0.3
O=C(Nc1ccc2c(c1)OCCO2)c1c(Cl)cccc1Cl,3,0.2%,0,-21,-0.1,-0.5
CCCCCCCCC(c1nc2ccccc2[nH]1)N1CCN=C(c2ccccc2)C1=O (stereo unspecified),x,7.5%,3,-5,-3.0,0.4
Cc1cc(=O)oc2cc(OC(C)C(=O)NCC3CCC(C(=O)O)CC3)c(Cl)cc12 (stereo unspecified),x,0.1%,0,-32,-2.9,x
O=C(O)C1Cc2ccccc2CN1C(=O)c1ccccc1 (stereo unspecified),-7,-0.8%[38.3 µM],2,-6,-2.1,0.1
CC(C)Cn1c(=O)c2sccc2n2c(CCCC(=O)NC3CCCCC3)nnc12,4,1.0%,x,x,x,-0.7
O=C(c1cccc(C(F)(F)F)c1)N1CCN(C2CCCCC2)CC1,17,u,2,-21,-0.2,1.1
O=C(NCc1ccccc1)c1cc(C2CCCN(C(=O)C3CCCCC3)C2)on1 (stereo unspecified),x,2.0%,8,-8,-1.1,-1.0
FC(F)(F)c1ccccc1Cc1c(-c2ccccc2)nc2c3ccccc3ccn12,17,11%,-2,-7,-6.2,0.2
CCCOc1cccc(C(=O)Nc2cccc3cccnc23)c1,-15,-1.8%,x,x,x,2.4
C/C=C/c1ccc(OCCNCc2ccccc2)c(OC)c1,5,1.7%,0,-29,0.8,-0.5
CCCc1nc2cc(CC(=O)OC)ccc2o1,5,20%[38.3 µM],4,-10,-3.7,-0.2
Cc1cc(NC(=O)CSc2nnc(C3CC3)n2C)no1,-5,-2.7%,5,15,-1.9,1.5
CCCCC(=O)NC(c1cccc([N+](=O)[O-])c1)c1c(OC(C)=O)ccc2ccccc12 (stereo unspecified),1,u,-21,5,-3.9,-0.6
O=C(NNc1ccc(Cl)cc1)C1CCC1,-15,-0.1%,-4,-20,3.2,0.1
CCOc1ccc(CNCc2c(C(=O)O)n(Cc3ccc(C)cc3)c3cc(C)ccc23)cc1,-12,8.5%,x,x,x,2.1
COc1cccc(CNC(=O)CN2C(=O)COc3ccc(S(=O)(=O)N4CCC(C)CC4)cc32)c1,10,-0.1%,2,-2,-4.0,-0.9
Nc1nn(-c2ccccc2)c2ccc([N+](=O)[O-])cc12,-1,-0.1%,-15,-14,-5.8,-0.5
c1ccc(-c2noc(-c3cccnc3)n2)nc1,5,1.1%,-1,10,-0.4,-0.1
CCN(CC)C(=O)N1CCN(C(=O)c2ccc(C)cn2)CC1,-9,-1.9%,-2,1,-2.9,-0.8
O=C1NC(c2ccccc2)C(C(=O)c2cccs2)=C1O (stereo unspecified),-10,-0.6%,1,-17,-3.6,1.7
CCC(=O)NC(=S)Nc1ccc(NC(=O)c2ccc(C)c([N+](=O)[O-])c2)cc1,-12,4.1%,-2,-29,0.1,2.9
CCOC(=O)c1ccc(Nc2c(-c3ccc(OC)cc3)nc3nc[nH]n23)cc1,4,1.8%,x,x,x,-0.2
O=C(COc1ccccc1)NCc1ccccc1,-7,-3.7%[38.3 µM],5,-7,-1.0,-0.6
Nc1ccc(S(=O)(=O)NNC(=O)C(=O)NNc2ccccc2)cc1,-10,u,-6,-1,3.5,0.7
COc1ccc(CNc2ccc3cn[nH]c3c2)c(OC)c1OC,20,u,-22,u,6.1,0.1
O=C(NC(=S)Nc1cccc2[nH]ncc12)c1ccccc1,0,8.2%,-4,-9,-4.8,-0.8
Cc1ccc(C)c(-c2csc(N)c2C(=O)OC(C)C)c1,-25,1.9%,-12,-6,1.1,0.6
COc1ccc(CNCCCn2cnc(C(=O)Nc3ccc(C)c(C)c3)n2)cc1,-2,-0.4%,3,x,-1.2,-0.7
CN(C)c1ccc(NS(=O)(=O)c2ccc(Cl)cc2)cc1,-8,6.1%,u,22,13,1.1
N/C(=N\OC(=O)c1cccc(Cl)c1)c1ccncc1,4,-0.2%,-15,16,u,-0.3
CN(C)[C@@H]1CCC[C@H]1OC(=O)C(c1ccccc1)c1ccccc1,-18,-1.0%,-17,-34,-1.9,0.1
CCN(CC)S(=O)(=O)c1ccc2oc(Nc3ccc(OC)cc3)nc2c1,-8,9.8%,-16,1,-0.4,-0.1
O=C(Nn1cnc2ccccc2c1=O)c1ccc(F)cc1Cl,-4,-0.4%[38.3 µM],-9,-5,-0.5,0.0
N#Cc1ccc(OCCN2C(=O)NC3(CCSC3)C2=O)cc1 (stereo unspecified),-10,0.8%,9,11,-1.6,0.4
CCN(CC)c1ccc(S(=O)(=O)N2CCOCC2)cc1NC(=O)Cn1nc(C)c([N+](=O)[O-])c1C,-3,1.6%,8,-18,-0.1,0.8
Cc1cccc(NC(=O)CCS(=O)(=O)c2ccccc2)c1,20,0.1%,2,-7,-1.0,1.7
CCCS(=O)(=O)NC(=O)C1(C)CCCN(C(=O)c2c(F)ccc(C)c2F)C1 (stereo unspecified),x,1.8%,0,-3,-6.9,-0.6

# (further entries)
SMILES,TRPML1 inh,PINK1 modulator,Six1-Eya2 inh,D2 PAM,D2 agonist,TRPML1 agonist
O=C(CSc1nnc(-c2ccccc2)n1Cc1ccccc1)NNC(=O)c1ccccc1O,-9,0.9%,-13,-10,-2.0,5.5
CCc1ccc(Nc2nnc(SCC(=O)NC(=O)CN3CCCC3=O)s2)cc1,20,1.1%,-13,1,5.1,1.6
Cc1ccc(C(NC(=O)N2CCOCC2)C(Cl)Cl)cc1F (stereo unspecified),5,-1.3%,8,-1,0.3,2.5
Cn1c(NC(=O)c2ccco2)c(-c2ccc(Cl)cc2)c(=O)c2ccccc21,-9,12%[38.3 µM],6,-10,0.2,0.0
CC(=O)N1CCN(C(=O)/C(C#N)=C/c2ccc3c(c2)OCO3)CC1,1,0.8%,-1,-1,-2.1,0.0
CCOC(=O)c1nn(-c2ccccc2C)c2nc(-c3ccc(Cl)cc3)c(C#N)c(=O)n12,9,-2.2%,12,-1,-0.8,0.8
N#Cc1cccc(NC(=O)c2cc(C3CCCCN3S(=O)(=O)c3cccc4cccnc34)on2)c1 (stereo unspecified),-5,-0.9%,-8,-6,4.0,0.4
O=C(N/N=C/c1cn(CC(=O)N2CCOCC2)c2ccccc12)c1cccnc1,9,-0.3%,2,-4,1.4,0.1
CCOc1ccc(Cc2nc(C)c(CC(=O)N3CCCCC3)c(=O)[nH]2)cc1,-2,3.7%,-4,-13,0.3,-0.5
O=C(CN(Cc1ccc(F)cc1)C(=O)c1csnn1)NCc1ccccc1,4,-0.1%,-3,-4,1.1,0.3
CCN(CC)C(=O)CSc1nnc(SC(C)C(=O)NC2CC2)s1 (stereo unspecified),6,1.4%,3,-14,1.3,-0.1
CCCC1O[C@@H]2CC3C4CCC5=CC(=O)C=C[C@]5(C)C4C(OC(C)=O)C[C@]3(C)[C@]2(C(=O)COC(C)=O)O1 (stereo partly specified),-5,1.3%,0,-17,-2.7,4.1
CCc1ccc(/C=N/NC(=O)c2nnn(-c3nonc3N)c2C(C)C)cc1,2,9.4%,-3,-5,1.1,1.4
CCOC(=O)C(=O)N1c2ccccc2C(N(C(=O)C(=O)OCC)c2ccccc2)CC1C (stereo unspecified),-7,3.2%,2,-14,-2.3,0.5
S=c1[nH]nc(-c2cc(-c3ccccn3)nc3ccccc23)o1,6,0.3%,-21,-10,-2.3,-0.7
CCOC(=O)N1CCN(C(=O)c2ccc(C)c(S(=O)(=O)Nc3cccc(C)c3C)c2)CC1,8,-1.1%[38.3 µM],5,-4,1.5,1.8
COc1ccc(CNC(=O)C(C)NC(=O)c2cc3ccccc3o2)cc1 (stereo unspecified),0,3.0%,-10,-8,0.5,0.2
COc1ccc(C(CC(=O)O)c2ccc3c(c2)OCO3)cc1 (stereo unspecified),15,-0.7%,-8,-2,-3.2,-0.5
Cc1csc(SCC(=O)Nc2ccc(C)c(F)c2)n1,20,1.2%,7,-17,-2.6,0.4
Cc1ccc(NC(=O)Nc2cnccn2)cc1,9,0.2%,-7,-14,-4.4,1.4

# Copied from the list:
# Six1-Eya2 inh with `CCOC(=O)C(=O)N1c2ccccc2C(N(C(=O)C(=O)OCC)c2ccccc2)CC1C` (stereo unspecified) → 2
# TRPML1 inh with `CCc1ccc(/C=N/NC(=O)c2nnn(-c3nonc3N)c2C(C)C)cc1` → 2

# More results follow.
SMILES,TRPML1 inh,PINK1 modulator,Six1-Eya2 inh,D2 PAM,D2 agonist,TRPML1 agonist
CC(=O)c1ccc(NS(=O)(=O)c2c(C)nc3scc(C)n3c2=O)cc1,-8,-0.9%,x,x,x,0.8
O=C(C(Cc1ccccc1)n1cccc1)N1CCN(C2CCCCC2)CC1 (stereo unspecified),0,4.1%,-2,-8,-2.8,-0.1
CNC(=O)CSc1nnc(-c2ccccc2F)n1CCc1ccccc1,14,0.3%,0,-14,-6.0,-0.2
COc1cc(C(=O)OCC(=O)NC23CC4CC(CC(C4)C2)C3)cc(OC)c1OC,-20,1.6%,7,-4,0.9,3.3
